Screens (PubChem)
FPR binding: FPR binders displacing fluorescent formyl peptide, primary screen, U937-FPR cells, fMLFK-FITC, flow cytometry (AID 362); hit rate 1% among 4,300; U937-FPR cells, fMLFK-FITC displacement, flow cytometry; stronger effect = higher value; test concentration not given here; most inactive calls were filed without a number and no value below 0 was filed; inhibition, %; fMet-Leu-Phe receptor (Homo sapiens);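 active = inhibition of labelled peptide binding to the formyl peptide receptor of at least 65%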;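 also: plate controls were buffer control wells for no effect and unlabeled fMLFF blocking peptide for full effect; higher means less cell fluorescence so more probe displaced; part of the set was picked by virtual screening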
An asterisk follows results filed as active; i = inactive. Some of the compounds tested; the hit share may differ from the screen's.

| FPR binding | Compound |
| --- | --- |
| i | CCC(C)OC(=O)C1=C(C)NC2=C(C(=O)C(C(=O)OC)C(C)C2)C1c1ccc(C)s1 (configuration not stated) |
| 7 | CC1C/C(=C\c2cccnc2)C(=O)/C(=C/c2cccnc2)C1 (configuration not stated) |
| i | C/C=C/COC(=O)C1=C(C)NC(=O)NC1c1cc(Br)c(O)c(OC)c1 (configuration not stated) |
| 53 | COC(=O)C1C(=O)C2=C(CC1C)NC(C)=C(C(=O)OC1CCCC1)C2c1ccc(N(C)C)cc1 (configuration not stated) |
| i | CC(=O)NC(Cc1ccc(F)cc1)C(=O)NC(CC(C)C)C(=O)O (configuration not stated) |
| i | CCC1CCC(C(=O)NC(C(=O)NC(C(=O)OC)C(C)C)C(C)C)CC1 (configuration not stated) |
| 2 | COc1ccc(CCNC(=O)CCCCCn2c(SCC(=O)NCc3ccco3)nc3ccsc3c2=O)cc1OC |
| i | COc1ccc(CNC(=O)C2CCN(S(=O)(=O)N3CC(C)CC(C)C3)CC2)c(OC)c1 (configuration not stated) |
| 8 | COc1ccc(-c2nn(-c3ccccc3)cc2C=C2C(=O)CC(C)(C)CC2=O)cc1 |
| 6 | COC(=O)C1=C(N)OC2=C(C(=O)CC(C)(C)C2)C1c1cc(Br)ccc1OC (configuration not stated) |
| i | COC(=O)c1ccccc1NC(=O)CSc1nc2ccsc2c(=O)n1CCC(C)C |
| 4 | COc1cc(C2C3=C(CC(C)(C)CC3=O)Nc3ncnn32)ccc1OC(F)F (configuration not stated) |
| 4 | CCC1CCCCN1Cc1c(O)ccc2c(=O)c(-c3ccccc3OC)c(C(F)(F)F)oc12 (configuration not stated) |
| 3 | CCOCCOC(=O)C1=C(C)NC2=C(C(=O)C(C(=O)OC)C(C)C2)C1c1cccc(O)c1 (configuration not stated) |
| i | CC(C)Oc1ccc(C(=O)CCNC(C(=O)O)C(C)C)cc1 (configuration not stated) |

Other entries
| FPR binding | Compound |
| --- | --- |
| 4 | CC1CC(C)CN(c2cc(Nc3cccc(C(=O)O)c3)c3c4c(onc24)-c2ccccc2C3=O)C1 (configuration not stated) |
| 16 | CC(=O)Oc1ccc2oc(=O)c3c(c2c1)CCCN3C(=O)C(C)N1CCCCC1 (configuration not stated) |
| i | N#Cc1c(N)nc(SCc2ccccc2)c(C#N)c1C1CCCCC1 |
| 10 | Cc1cccc(C(=O)NC2(C(F)(F)F)C(=O)Nc3c2c(=O)[nH]c(=O)n3-c2ccc(F)cc2)c1 (configuration not stated) |
| i | OC12CC3CC(C1)C(=NNc1nn[nH]n1)C(C3)C2 |
| 1 | CCOC(=O)CNC(=O)c1cn(CC(C)C)c(=O)c2cc(OC)c(OC)cc12 |
| i | COc1cc(C2NC(=O)NC(C)=C2C(=O)OCC(C)C)ccc1OCc1ccccc1 (configuration not stated) |
| i | CCOC(=O)c1c(-c2ccccc2)oc2ccc(O)c(CN3CCCCCC3)c12 |
| i | COc1cc2c(C(=O)NCCN(C)C)cn(CC(C)C)c(=O)c2cc1OC |
| i | CC(C)=C(/C(=C/CS(=O)(=O)c1ccc(C)cc1)S(=O)(=O)c1ccccc1)S(=O)(=O)c1ccccc1 |
| 6 | COC(=O)C1C(=O)C2=C(CC1C)NC(C)=C(C(=O)OC1CCCCCC1)C2c1ccc(OC)cc1 (configuration not stated) |
| i | Cc1onc(-c2ccccc2)c1C1=N/C(=C\C=C\c2ccccc2)C(=O)O1 |
| i | N#Cc1c(N)nc2c(c1-c1cccnc1)CCCCCC2 |
| i | Cc1nc(C2CC(=O)OC23CCCCC3)cs1 (configuration not stated) |
| 46 | CCOC(=O)c1sc(NC(=O)C(CC(C)C)N2C(=O)c3ccccc3C2=O)nc1C (configuration not stated) |

Among those listed so far, nine contain a carbonyl joined to an NH by a bond outside any ring:
| FPR binding | Compound |
| --- | --- |
| i | CC(=O)NC(Cc1ccc(F)cc1)C(=O)NC(CC(C)C)C(=O)O (configuration not stated) |
| i | CCC1CCC(C(=O)NC(C(=O)NC(C(=O)OC)C(C)C)C(C)C)CC1 (configuration not stated) |
| 2 | COc1ccc(CCNC(=O)CCCCCn2c(SCC(=O)NCc3ccco3)nc3ccsc3c2=O)cc1OC |
| i | COc1ccc(CNC(=O)C2CCN(S(=O)(=O)N3CC(C)CC(C)C3)CC2)c(OC)c1 (configuration not stated) |
| i | COC(=O)c1ccccc1NC(=O)CSc1nc2ccsc2c(=O)n1CCC(C)C |
| 10 | Cc1cccc(C(=O)NC2(C(F)(F)F)C(=O)Nc3c2c(=O)[nH]c(=O)n3-c2ccc(F)cc2)c1 (configuration not stated) |
| 1 | CCOC(=O)CNC(=O)c1cn(CC(C)C)c(=O)c2cc(OC)c(OC)cc12 |
| i | COc1cc2c(C(=O)NCCN(C)C)cn(CC(C)C)c(=O)c2cc1OC |
| 46 | CCOC(=O)c1sc(NC(=O)C(CC(C)C)N2C(=O)c3ccccc3C2=O)nc1C (configuration not stated) |

Further entries follow:
| FPR binding | Compound |
| --- | --- |
| i | Cc1ccc(NC(=O)C2CCC(CNS(=O)(=O)c3cccs3)CC2)cc1C (configuration not stated) |
| 3 | Cc1ccc(Cl)cc1N1CCN(C(=O)c2cn(CC(C)C)c(=O)c3c2c2ccccc2n3C)CC1 |
| i | COc1ccc(CN2CCCC(C(=O)N3CCCCC3)C2)c(OC)c1 (configuration not stated) |
| i | O=C1NC(c2cccc(Oc3ccccc3)c2)C(C(=O)c2ccc(F)cc2)C(O)(C(F)(F)F)N1 (configuration not stated) |
| i | CCCCCOC(=O)C1=C(C)NC(=O)NC1c1ccc(OC)c(Br)c1 (configuration not stated) |
| i | CC1(C)CC(=O)C(C=Nc2ccc(O)c(N=CC3=C(O)CC(C)(C)CC3=O)c2)=C(O)C1 |
| i | Cc1ccc(CNc2ccc(N3C(=O)C4C5C=CC(C5)C4C3=O)cc2[N+](=O)[O-])cc1 (configuration not stated) |
| 7 | COc1ccc(C2C(C(=O)OC3CCCCCC3)=C(C)NC3=C2C(=O)CC(C)(C)C3)c(OC)c1OC (configuration not stated) |
| i | CCOC(=O)C1C(=O)C=C(c2ccc(F)cc2)CC1c1ccc([N+](=O)[O-])cc1 (configuration not stated) |
| i | CCCCc1cc(=O)oc2cc(OCC(=O)OC)c(Cl)cc12 |
| i | CC(C)(C)c1cc(C(c2ccncc2)N2CCCC2)cc(C(C)(C)C)c1O (configuration not stated) |
| 3 | CCOCCCNC(=O)c1cn(CC(C)C)c(=O)c2c1c1ccccc1n2C |
| 6 | COc1cc(C2C3=C(CC(C)(C)CC3=O)Nc3ncnn32)cc(OC)c1OC (configuration not stated) |
| i | CCC1C(C#N)=C(N)OC2=C1C(=O)CC(C)(C)C2 (configuration not stated) |
| i | C=CCOC(=O)COc1cc2oc(=O)c3c(c2cc1Cl)CCC3 |

Among those listed so far, 6 have fluorine:
| FPR binding | Compound |
| --- | --- |
| i | CC(=O)NC(Cc1ccc(F)cc1)C(=O)NC(CC(C)C)C(=O)O (configuration not stated) |
| 4 | COc1cc(C2C3=C(CC(C)(C)CC3=O)Nc3ncnn32)ccc1OC(F)F (configuration not stated) |
| 4 | CCC1CCCCN1Cc1c(O)ccc2c(=O)c(-c3ccccc3OC)c(C(F)(F)F)oc12 (configuration not stated) |
| 10 | Cc1cccc(C(=O)NC2(C(F)(F)F)C(=O)Nc3c2c(=O)[nH]c(=O)n3-c2ccc(F)cc2)c1 (configuration not stated) |
| i | O=C1NC(c2cccc(Oc3ccccc3)c2)C(C(=O)c2ccc(F)cc2)C(O)(C(F)(F)F)N1 (configuration not stated) |
| i | CCOC(=O)C1C(=O)C=C(c2ccc(F)cc2)CC1c1ccc([N+](=O)[O-])cc1 (configuration not stated) |

Next section.
| FPR binding | Compound |
| --- | --- |
| i | COC(=O)c1sc2nc(-c3ccncc3)cc(C(F)(F)F)c2c1N |
| 10 | Cc1cccc(C)c1NC(=O)C1(N(C)C(=O)c2cnccn2)CCCCC1 |
| 70* | Cc1sc(NC(=O)C2CCCCC2C(=O)O)c(C(N)=O)c1-c1ccc(C(C)(C)C)cc1 (configuration not stated) |
| 49 | CC(C)c1cc(C(C)C)c(S(=O)(=O)NCc2cccnc2)c(C(C)C)c1 |
| 18 | COC(=O)C1=C(N)OC2=C(C(=O)CC(C)(C)C2)C1c1ccc2c(c1)OCO2 (configuration not stated) |
| i | CCOC(=O)C1=C(N)OC2=C(C(=O)CC(C)(C)C2)C1c1ccc(CC)s1 (configuration not stated) |
| 15 | COc1ccc(S(=O)(=O)N(C(=O)C2CCCCC2)c2ccc3oc(C)c(C(C)=O)c3c2)cc1 |
| i | CCOC(=O)CSc1nc2ccccc2c(=O)n1CCCCCC(=O)NCc1ccco1 |
| 26 | C#CCOc1c(Cl)cc(C2C3=C(CC(C)(C)CC3=O)N(CC(=O)O)C3=C2C(=O)CC(C)(C)C3)cc1OCC |
| i | CCCCn1c(CN(C)Cc2ccccc2)nc2c1c(=O)n(C)c(=O)n2C |
| i | CC1=CC(C)C2(COC(=O)Nc3ccccc3)COC(c3ccccc3)C1C2C (configuration not stated) |
| 5 | CCCCOc1ccccc1C1C(C(=O)OC(C)C)=C(C)NC2=C1C(=O)C(C(=O)OC)C(C)C2 (configuration not stated) |
| 12 | COC(=O)C(c1cc(C)c(O)c(C)c1)(c1cc(C)c(O)c(C)c1)C(F)(F)F |
| i | CCCCN(C)C(=O)c1cn(CC(C)C)c(=O)c2cc(OC)c(OC)cc12 |
| i | Cc1cc(C)cc(Oc2c(C(F)(F)F)oc3cc(OC(C)C(=O)OC(C)C)ccc3c2=O)c1 (configuration not stated) |

Next structures
| FPR binding | Compound |
| --- | --- |
| i | CCOC(=O)C1=C(C)NC2=C(C(=O)C(C(=O)OC)C(C)C2)C1c1cc(Cl)c(O)c(OCC)c1 (configuration not stated) |
| i | CCCCOC(=O)C1=C(C)NC(=O)NC1c1ccc(O)c(OCC)c1 (configuration not stated) |
| i | Cc1c(OC(C)C(=O)OCc2ccccc2)ccc2c3c(c(=O)oc12)CCC3 (configuration not stated) |
| i | O=C(CSc1c2c(nc3ccccc13)CCCC2)Nc1ccc(F)cc1F |
| i | CCCCCn1c(CN2CCN(C(=O)OCC)CC2)nc2c1c(=O)n(C)c(=O)n2C |
| i | CCOc1cc(C2C3=C(CC(C)(C)CC3=O)Nc3nc(-c4ccccc4)nn32)ccc1OCc1ccccc1 (configuration not stated) |
| 6 | Cc1ccc(S(=O)(=O)/N=C(\CN2CCOCC2)N2CCCN(S(=O)(=O)c3ccc(C)cc3)C2C(C)C)cc1 (configuration not stated) |
| i | O=C(Nc1ccc(Cl)cc1)C1CC=CCC1C(=O)OCC1CCCO1 (configuration not stated) |
| 23 | COCCNc1c2c(c(C#N)c3nc4ccccc4n13)CCCC2 |
| 31 | CC1(C)CC(=O)C(C(c2ccco2)C2C(=O)CC(C)(C)CC2=O)C(=O)C1 |
| 6 | COC(=O)C1C(=O)C2=C(CC1C)NC(C)=C(C(=O)OC1CCCC1)C2c1coc2ccccc2c1=O (configuration not stated) |
| i | Cc1ccc(NC(=O)CSc2nc3ccccc3c(=O)n2CC2CCC(C(=O)NCC3CCCO3)CC2)cc1Cl (configuration not stated) |
| i | O=S(=O)(NC1CCCCC1N1CCOCC1)c1ccc(Cl)cc1 (configuration not stated) |
| i | Cc1ccc(CNC(=O)CSc2nc3ccsc3c(=O)n2CCCCCC(=O)O)cc1 |
| 44 | CCc1cc2c(=O)c(Oc3ccccc3)c(C(F)(F)F)oc2c(CN(C)C)c1O |

Given with each value named: entries from further up.
O=C(CSc1c2c(nc3ccccc13)CCCC2)Nc1ccc(F)cc1F
  FPR binding: i
CCCCCn1c(CN2CCN(C(=O)OCC)CC2)nc2c1c(=O)n(C)c(=O)n2C
  FPR binding: i

Next results follow.
| FPR binding | Compound |
| --- | --- |
| i | COc1ccc(C2(C(=O)NCCc3ccccc3)CCCC2)cc1OC |
| i | COc1ccccc1N1CCN(S(=O)(=O)c2c(C)sc3ncn(CC(=O)N(C)C4CCCCC4)c(=O)c23)CC1 |
| i | COc1cc(OC)c(C2C3=C(CC(C)(C)CC3=O)Nc3nc4ccccc4n32)cc1OC (configuration not stated) |
| i | COCCOC(=O)C1=C(N)OC2=C(C(=O)CC(C)(C)C2)C1c1cccnc1 (configuration not stated) |
| i | N#Cc1c2c(c(N3CCN(C/C=C/c4ccccc4)CC3)n3c1nc1ccccc13)CCC2 |
| 4 | COC(=O)C1C(=O)C2=C(CC1C)NC(C)=C(C(=O)OC1CCCC1)C2c1ccc(O)c(OC)c1 (configuration not stated) |
| 38 | CCOCCOC(=O)C1=C(C)NC2=C(C(=O)C(C(=O)OC)C(C)C2)C1c1ccc(OCC)cc1 (configuration not stated) |
| 20 | CC(=O)Oc1ccc2oc(=O)c3c(c2c1)CCCN3C(=O)CN1CCCCC1 |
| i | CC(=O)N1CCc2cc(S(=O)(=O)NC(C(=O)NCc3cccs3)C(C)C)ccc21 (configuration not stated) |
| i | CC(=O)Oc1ccc2c3c(c(=O)oc2c1)CCC3 |
| 2 | CCSCCOC(=O)C1=C(C)NC2=C(C(=O)C(C(=O)OC)C(C)C2)C1c1ccc([N+](=O)[O-])cc1 (configuration not stated) |
| i | COc1ccc(C2C(C(=O)OC3CCCCC3)=C(C)NC3=C2C(=O)CC(C)(C)C3)cc1O (configuration not stated) |
| 8 | CC(C)Cn1cc(C(=O)NCCCOC(C)C)c2c3ccccc3n(C)c2c1=O |
| 12 | CCOc1cc(C2C(C(=O)OC3CCCC3)=C(C)NC3=C2C(=O)CC(c2ccc(OC)cc2)C3)ccc1OC(C)=O (configuration not stated) |
| i | c1ccc2c(c1)nc1n2C2(N3CCOCC3)CCCC2C1N1CCOCC1 (configuration not stated) |

Next part.
| FPR binding | Compound |
| --- | --- |
| i | CCCCCn1c(SCC(=O)OCC)nc2cc(C(=O)Nc3cccc(Cl)c3)ccc2c1=O |
| 4 | CC(C)n1c(C(O)c2cc(C(C)(C)C)c(O)c(C(C)(C)C)c2)nc2ccccc21 (configuration not stated) |
| i | COCCCNC(=O)C1CCN(S(=O)(=O)N2CCC(C)CC2)CC1 |
| i | CCOC(=O)C1CCC(CN(Cc2cccc(Br)c2)S(=O)(=O)c2ccc3c(c2)OCCO3)CC1 (configuration not stated) |
| i | N=c1c(C(=O)NCC2CCCO2)cc2c(=O)n3ccccc3nc2n1C1CCCC1 (configuration not stated) |
| i | COc1cc2c(C(=O)N(C)c3ccccc3F)cn(CC(C)C)c(=O)c2cc1OC |
